A1 apoptosis 2: A1 inhibitors via caspase activation, primary screen, cell-based, luminescence, HTS, two replicates; caspase activation, % (test concentration not listed); 24,000 tested, under 10 active; MEF A1-2A-BIM cells, caspase-Glo luminescence, 3 h; percent of clofoctol response, DMSO zero; in the data active means caspase activation above about 5.9%;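 further: wells of about 30 µL received 50 nL stock; the first replicate is given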
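Evaluation: Caspase-3/7 activity from luminescence increase | Assay system: A1-2A-BIM mouse embryonic fibroblasts | Quantity: 2500 MEF cells/well | Medium: RPMI-1640 plus 10% FBS | Detection: Caspase-Glo 3/7 luminescence, 1 h at room temperature | Dosing: 50 nL compound per well, pinned | Timing: Cells settled overnight, compound exposure 3 h at 37 °C, 5% CO2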
Starred values were filed as active, the others as inactive. An excerpt. The share of hits here may be higher or lower than overall.

SMILES	A1 apoptosis 2
C[C@@H]1CN([C@H](C)CO)C(=O)Cc2cc(NC(=O)Nc3ccc4c(c3)OCO4)ccc2O[C@H]1CN(C)C(=O)Nc1ccccc1	0.3
C[C@H](CO)N1C[C@H](C)[C@H](CN(C)Cc2ccncc2)Oc2ccc(NC(=O)Nc3ccc(F)cc3)cc2C1=O	-1.0
C[C@@H]1CCCCO[C@@H](CN(C)Cc2ccc(C(=O)Nc3ccccc3N)cc2)[C@@H](C)CN([C@H](C)CO)C(=O)c2cc(N(C)C)ccc2O1	1.3
COc1ccc(CN(C)C[C@@H]2Oc3ccc(NC(=O)NC(C)C)cc3CC(=O)N([C@H](C)CO)C[C@@H]2C)cc1	0.5
CC(C)(C)OC(=O)NCCOCCOCCNc1ncnc2ccccc12	-0.7
CNC[C@H]1OCCCC[C@@H](C)Oc2ccc(N)cc2C(=O)N([C@@H](C)CO)C[C@H]1C	1.5
COc1ccc(NC(=O)Nc2ccc3c(c2)C(=O)N([C@@H](C)CO)C[C@@H](C)[C@H](CN(C)S(=O)(=O)c2cccs2)OCCCC[C@@H](C)O3)cc1	-0.6
COc1ccc(NC(=O)Nc2ccc3c(c2)CC(=O)N([C@H](C)CO)C[C@H](C)[C@@H](CN(C)C(=O)Nc2cccc4ccccc24)O3)cc1	-1.2
COc1ccc(S(=O)(=O)Nc2ccc3c(c2)C(=O)N([C@H](C)CO)C[C@H](C)[C@H](CN(C)CC2CC2)OCCCC[C@H](C)O3)cc1	0.5
C[C@H](CO)N1C[C@H](C)[C@H](CN(C)C(=O)Nc2cccc3ccccc23)Oc2ccc(NC(=O)Cc3cn(C)c4ccccc34)cc2CC1=O	0.0
Cc1cc(C(=O)Nc2cccc3c2O[C@@H](CN(C)C(=O)Nc2ccccc2)[C@@H](C)CN([C@@H](C)CO)C3=O)n(C)n1	-0.6
C[C@H]1CCCCO[C@@H](CN(C)S(=O)(=O)c2cccs2)[C@@H](C)CN([C@@H](C)CO)C(=O)c2cc(NS(=O)(=O)c3cn(C)cn3)ccc2O1	0.3
Cc1noc(C)c1NC(=O)Nc1cccc2c1O[C@H](CN(C)Cc1ccc(C(F)(F)F)cc1)[C@@H](C)CN([C@H](C)CO)C2=O	-0.1
COc1ccc(S(=O)(=O)Nc2ccc3c(c2)C(=O)N([C@@H](C)CO)C[C@@H](C)[C@@H](CN(C)CC2CCCCC2)OCCCC[C@H](C)O3)cc1	0.8
C[C@H]1CN([C@@H](C)CO)C(=O)CCCn2cc(nn2)CO[C@H]1CN(C)Cc1ccc(Cl)c(Cl)c1	-0.4
O=C(CCCCCC(=O)Nc1ccccc1O)N/N=C/c1ccc(CO)o1	0.5
C[C@H]1CN([C@@H](C)CO)C(=O)c2cc(NC(=O)Nc3ccc(F)cc3)ccc2O[C@@H]1CN(C)C(=O)Nc1ccc(C(F)(F)F)cc1	0.8
C[C@@H]1CN([C@H](C)CO)C(=O)c2cc(NC(=O)Cc3ccccc3)ccc2O[C@@H](C)CCCCO[C@H]1CN(C)C(=O)c1ccccc1	-0.8
C[C@@H]1CN([C@@H](C)CO)C(=O)Cc2cc(NC(=O)NC3CCCCC3)ccc2O[C@H]1CN(C)Cc1ccncc1	-0.2
Cc1ccc(S(=O)(=O)Nc2ccc3c(c2)C(=O)N([C@@H](C)CO)C[C@H](C)[C@@H](CN(C)C(=O)NC(C)C)OCCCC[C@H](C)O3)cc1	1.2

A run of entries from further up:
SMILES	A1 apoptosis 2
CNC[C@H]1OCCCC[C@@H](C)Oc2ccc(N)cc2C(=O)N([C@@H](C)CO)C[C@H]1C	1.5
COc1ccc(NC(=O)Nc2ccc3c(c2)C(=O)N([C@@H](C)CO)C[C@@H](C)[C@H](CN(C)S(=O)(=O)c2cccs2)OCCCC[C@@H](C)O3)cc1	-0.6
COc1ccc(NC(=O)Nc2ccc3c(c2)CC(=O)N([C@H](C)CO)C[C@H](C)[C@@H](CN(C)C(=O)Nc2cccc4ccccc24)O3)cc1	-1.2
COc1ccc(S(=O)(=O)Nc2ccc3c(c2)C(=O)N([C@H](C)CO)C[C@H](C)[C@H](CN(C)CC2CC2)OCCCC[C@H](C)O3)cc1	0.5
C[C@H](CO)N1C[C@H](C)[C@H](CN(C)C(=O)Nc2cccc3ccccc23)Oc2ccc(NC(=O)Cc3cn(C)c4ccccc34)cc2CC1=O	0.0
Cc1cc(C(=O)Nc2cccc3c2O[C@@H](CN(C)C(=O)Nc2ccccc2)[C@@H](C)CN([C@@H](C)CO)C3=O)n(C)n1	-0.6

The list continues.
SMILES	A1 apoptosis 2
C[C@@H]1CN([C@H](C)CO)C(=O)c2cc(NS(=O)(=O)c3ccccc3)ccc2O[C@H]1CN(C)S(C)(=O)=O	0.3
COc1ccc(S(=O)(=O)Nc2ccc3c(c2)C(=O)N([C@@H](C)CO)C[C@@H](C)[C@@H](CN(C)Cc2ccc4c(c2)OCO4)OCCCC[C@@H](C)O3)cc1	0.1
C[C@@H]1CN([C@@H](C)CO)C(=O)c2cc(NS(=O)(=O)c3cccs3)ccc2O[C@@H]1CN(C)Cc1ccc(-c2ccccc2)cc1	1.4
COc1ccc(CN(C)C[C@@H]2Oc3ccc(NC(=O)Nc4ccc(OC)cc4)cc3CC(=O)N([C@@H](C)CO)C[C@@H]2C)cc1	-0.4
COc1ccc(NC(=O)Nc2ccc3c(c2)CC(=O)N([C@H](C)CO)C[C@H](C)[C@H](CN(C)Cc2ccc(-c4ccccc4)cc2)O3)cc1	-0.3
C[C@@H]1CCCCO[C@H](CN(C)C(=O)Nc2ccc(F)cc2)[C@H](C)CN([C@H](C)CO)C(=O)c2cc(NC(=O)Nc3ccc(F)cc3)ccc2O1	-0.1
Cc1ccc(S(=O)(=O)N2CCN(Cc3ccc(OCCO)cc3)CC2)cc1	0.2
C[C@@H]1CN([C@@H](C)CO)C(=O)c2cccc(NC(=O)NC3CCCCC3)c2O[C@@H]1CN(C)Cc1ccc(Cl)c(Cl)c1	-0.6
C[C@@H]1CN([C@@H](C)CO)C(=O)Cc2cc(NC(=O)CCN3CCOCC3)ccc2O[C@@H]1CN(C)S(=O)(=O)c1cn(C)cn1	-1.5
C[C@H]1CN([C@@H](C)CO)C(=O)c2cccc(NC(=O)Nc3ccc(F)cc3)c2O[C@@H]1CN(C)Cc1ccc(-c2ccccc2)cc1	-1.6
CNC[C@@H]1OCCCC[C@H](C)Oc2ccc(NS(C)(=O)=O)cc2C(=O)N([C@@H](C)CO)C[C@@H]1C	0.8
C[C@H](CO)N1C[C@H](C)[C@@H](CN(C)Cc2ccc(C(=O)O)cc2)Oc2ccc(NC(=O)CCC(F)(F)F)cc2C1=O	0.3
C[C@@H]1CN([C@@H](C)CO)C(=O)c2cc(NS(=O)(=O)c3ccc(F)cc3)ccc2O[C@@H](C)CCCCO[C@H]1CN(C)CC1CC1	1.1
Cc1ccc(S(=O)(=O)N(C)C[C@H]2OCCCC[C@@H](C)Oc3ccc(NC(=O)Nc4ccccc4)cc3C(=O)N([C@H](C)CO)C[C@H]2C)cc1	0.0
C[C@@H]1CN([C@@H](C)CO)C(=O)c2cccc(NS(=O)(=O)c3cn(C)cn3)c2O[C@@H]1CN(C)Cc1ccc2c(c1)OCO2	-0.1
Cc1noc(C)c1S(=O)(=O)Nc1ccc2c(c1)CC(=O)N([C@H](C)CO)C[C@H](C)[C@@H](CN(C)C(=O)Nc1ccc(C(F)(F)F)cc1)O2	-0.3
COc1ccc(S(=O)(=O)N(C)C[C@H]2Oc3ccc(NS(=O)(=O)c4ccc(C)cc4)cc3C(=O)N([C@H](C)CO)C[C@@H]2C)cc1	-0.1
CCO[C@@H]1OC(C(=O)N2CCN(Cc3ccc4c(c3)OCO4)CC2)=C[C@H](c2ccc(Br)cc2)[C@H]1CCCO	0.1
COc1ccc(S(=O)(=O)Nc2ccc3c(c2)CC(=O)N([C@H](C)CO)C[C@@H](C)[C@@H](CN(C)C(=O)Nc2cccc4ccccc24)O3)cc1	0.8
Cc1noc(C)c1NC(=O)Nc1ccc2c(c1)CC(=O)N([C@H](C)CO)C[C@@H](C)[C@@H](CN(C)S(=O)(=O)c1ccc(Cl)cc1)O2	0.7
C[C@H]1CN([C@@H](C)CO)C(=O)c2cc(NC(=O)Cn3cnnn3)ccc2O[C@@H]1CN(C)Cc1ccc(Cl)c(Cl)c1	0.8
COc1ccc(S(=O)(=O)N(C)C[C@@H]2Oc3ccc(NC(=O)Cc4cn(C)c5ccccc45)cc3C(=O)N([C@H](C)CO)C[C@@H]2C)cc1	-0.7
COc1ccc(CN(C)C[C@@H]2OCCCC[C@H](C)Oc3ccc(NS(=O)(=O)c4cccs4)cc3C(=O)N([C@@H](C)CO)C[C@@H]2C)cc1	0.6
C[C@H]1CN([C@@H](C)CO)C(=O)c2cc(NC(=O)Nc3ccc4c(c3)OCO4)ccc2O[C@H]1CN(C)Cc1ccc2c(c1)OCO2	1.7
C[C@@H]1CN([C@H](C)CO)C(=O)c2cc(N(C)C)ccc2O[C@@H]1CN(C)C(=O)Nc1ccccc1	0.5
Cc1noc(C)c1S(=O)(=O)N(C)C[C@@H]1Oc2ccc(NC(=O)CCN3CCOCC3)cc2CC(=O)N([C@@H](C)CO)C[C@@H]1C	1.0
Cc1noc(C)c1NC(=O)N(C)C[C@@H]1Oc2c(NS(=O)(=O)c3cn(C)cn3)cccc2C(=O)N([C@H](C)CO)C[C@@H]1C	-0.8
C[C@@H]1CCCCO[C@@H](CN(C)Cc2ccncc2)[C@H](C)CN([C@@H](C)CO)C(=O)c2cc(NC(=O)C3CCCCC3)ccc2O1	1.5
C[C@@H]1CN([C@@H](C)CO)C(=O)c2cc(NC(=O)Cc3ccccc3)ccc2O[C@@H](C)CCCCO[C@@H]1CN(C)C(=O)Nc1ccc2c(c1)OCO2	-0.5
C[C@H]1CN([C@@H](C)CO)C(=O)c2cc(NS(=O)(=O)c3cn(C)cn3)ccc2O[C@H]1CN(C)S(=O)(=O)c1ccc(Cl)cc1	0.1
C[C@@H]1CCCCO[C@@H](CN(C)Cc2ccncc2)[C@@H](C)CN([C@H](C)CO)C(=O)c2cc(NC(=O)C3CCCCC3)ccc2O1	1.0
COc1ccc(NC(=O)N(C)C[C@H]2Oc3ccc(NS(=O)(=O)c4ccc(OC)cc4)cc3CC(=O)N([C@@H](C)CO)C[C@H]2C)cc1	0.6
C[C@H](CO)N1C[C@H](C)[C@@H](CN(C)Cc2ccc(-c3ccccc3)cc2)Oc2ccc(NS(=O)(=O)c3cn(C)cn3)cc2C1=O	0.9
C[C@@H]1CCCCO[C@@H](CN(C)Cc2ccc(C(=O)O)cc2)[C@H](C)CN([C@@H](C)CO)C(=O)c2cc(N(C)C)ccc2O1	1.0
C[C@@H]1CN([C@@H](C)CO)C(=O)c2cc(NC(=O)Nc3ccc(F)cc3)ccc2O[C@H]1CN(C)Cc1ccc(Cl)c(Cl)c1	1.6
C[C@H]1CN([C@@H](C)CO)C(=O)Cc2cc(NC(=O)Nc3ccc(C(F)(F)F)cc3)ccc2O[C@H]1CN(C)C(=O)NC1CCCCC1	0.2
Cc1noc(C)c1NC(=O)N(C)C[C@@H]1OCCCC[C@H](C)Oc2ccc(NC(=O)CCC(F)(F)F)cc2C(=O)N([C@@H](C)CO)C[C@H]1C	1.1
Cc1noc(C)c1S(=O)(=O)Nc1ccc2c(c1)CC(=O)N([C@@H](C)CO)C[C@@H](C)[C@H](CN(C)Cc1ccc(Cl)c(Cl)c1)O2	-1.3
C[C@@H]1CN([C@H](C)CO)C(=O)c2cc(NS(=O)(=O)c3ccc(Cl)cc3)ccc2O[C@@H](C)CCCCO[C@@H]1CN(C)S(C)(=O)=O	0.6
C[C@@H]1CCCCO[C@@H](CN(C)S(=O)(=O)c2ccc(F)cc2)[C@@H](C)CN([C@H](C)CO)C(=O)c2cc(NC(=O)CCC(F)(F)F)ccc2O1	0.7
COc1ccc(NC(=O)N(C)C[C@H]2OCCCC[C@@H](C)Oc3ccc(NC(=O)NC(C)C)cc3C(=O)N([C@H](C)CO)C[C@@H]2C)cc1	-0.3
C[C@H]1CN([C@@H](C)CO)C(=O)Cc2cc(N(C)C)ccc2O[C@H]1CN(C)Cc1ccccc1	0.5
C[C@H]1CN([C@@H](C)CO)C(=O)Cc2cc(NC(=O)C3CC3)ccc2O[C@H]1CN(C)Cc1ccc2c(c1)OCO2	1.1
CC(C)NC(=O)Nc1ccc2c(c1)C(=O)N([C@@H](C)CO)C[C@H](C)[C@@H](CN(C)Cc1ccc3c(c1)OCO3)OCCCC[C@H](C)O2	-0.1
C[C@@H]1CN([C@H](C)CO)C(=O)c2cccc(NC(=O)c3ccncc3)c2O[C@@H]1CN(C)Cc1ccc(Cl)c(Cl)c1	-0.9
C[C@H](CO)N1C[C@H](C)[C@H](CN(C)C(=O)Nc2cccc3ccccc23)Oc2ncc(-c3cc4ccccc4o3)cc2C1=O	0.8
O=C1O[C@H](c2ccccc2)[C@H](c2ccccc2)N2[C@H]1[C@@H](C(=O)N1CCCCCCC1)[C@]1(C(=O)Nc3ccc(C#CC4(O)CCCCCC4)cc31)[C@H]2c1ccc(O)cc1	-0.5
C[C@H]1CN([C@@H](C)CO)C(=O)c2cc(NC(=O)Cn3cnnn3)ccc2O[C@H]1CN(C)S(=O)(=O)c1ccc(Cl)cc1	0.5
C[C@@H]1CN([C@H](C)CO)C(=O)Cc2cc(NS(=O)(=O)c3ccccc3)ccc2O[C@@H]1CN(C)Cc1ccc(C(F)(F)F)cc1	0.5

Screens as filed in PubChem.
